High-throughput results as filed in PubChem BioAssay.
KCNQ2 enhance – enhances the rat KCNQ2 potassium channel | O88943 | CHO-K1 KCNQ2, FluxOR thallium flux fluorescence; stronger effect = higher value | B-score at 10 µM | 0.54% of 310,000 active | AID 2239;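 active means fluorescence ratio B-score at least 3 SD of library B-scores, with initial fluorescence B-score within 3 SD, cut at about 5.3 in these data; same plate scores as AID 2156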;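 further: B-score of peak minus minimum over baseline fluorescence ratio after K+ and Tl+ stimulus; positive B-score means potentiation of KCNQ2 with more thallium influx and brighter signal; only the inactives scoring about 0 or higher are listed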
Target sequence (O88943 whole entry, looked up): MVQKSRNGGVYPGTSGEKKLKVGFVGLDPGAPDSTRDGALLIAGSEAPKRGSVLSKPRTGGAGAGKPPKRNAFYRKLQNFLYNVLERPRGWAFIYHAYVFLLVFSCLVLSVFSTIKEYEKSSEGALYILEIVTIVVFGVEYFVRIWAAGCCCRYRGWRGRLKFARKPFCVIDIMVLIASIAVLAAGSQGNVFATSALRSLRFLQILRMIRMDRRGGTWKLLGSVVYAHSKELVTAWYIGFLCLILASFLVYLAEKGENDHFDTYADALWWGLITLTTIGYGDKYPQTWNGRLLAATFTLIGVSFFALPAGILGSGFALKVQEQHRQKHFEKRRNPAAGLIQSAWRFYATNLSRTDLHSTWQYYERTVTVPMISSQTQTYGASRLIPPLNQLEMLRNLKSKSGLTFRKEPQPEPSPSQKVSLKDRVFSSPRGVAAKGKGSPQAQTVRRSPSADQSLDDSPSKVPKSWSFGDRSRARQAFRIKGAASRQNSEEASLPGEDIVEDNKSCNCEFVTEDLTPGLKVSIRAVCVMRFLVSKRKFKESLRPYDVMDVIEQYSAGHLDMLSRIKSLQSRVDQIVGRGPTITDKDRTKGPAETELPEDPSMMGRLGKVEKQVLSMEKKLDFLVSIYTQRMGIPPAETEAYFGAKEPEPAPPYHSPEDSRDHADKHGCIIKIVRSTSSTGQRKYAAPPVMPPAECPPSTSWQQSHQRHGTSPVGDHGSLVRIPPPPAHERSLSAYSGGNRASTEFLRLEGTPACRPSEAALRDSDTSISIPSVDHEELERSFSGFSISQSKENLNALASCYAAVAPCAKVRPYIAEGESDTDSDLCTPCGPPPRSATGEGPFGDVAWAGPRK
KCNQ2 enhance baseline – also measured in KCNQ2 enhance; calls as there; B-score; compound at 10 µM; measured here: initial fluorescence intensity artifact check;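 brightness before thallium and not channel activity; 0 = typical well and far values either way flag optical interference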
Active calls of the source: *; . = not tested or not shown. Some of the compounds tested. The share of hits here may be higher or lower than overall.

nr	KCNQ2 enhance	KCNQ2 enhance baseline	canonical_smiles
1	1.2	-2.2	C=CCn1c(=NC(=O)c2sc3ccccc3c2Cl)sc2cc(S(N)(=O)=O)ccc21
2	0.09	1.8	C[N+]1(CC(=O)OCCCc2ccccc2)CCCC1
3	1.9	0.16	CC1=C(C(=O)OCc2ccccc2)C(c2ccc(N(C)C)cc2)NC(=O)N1 (centres undefined)
4	0.63	1.5	COCCN(C(=O)COC(=O)CCC(=O)c1ccc(Cl)cc1)c1c(N)n(Cc2ccccc2)c(=O)[nH]c1=O
5	0.19	-1.5	COC(=O)CCc1nc2cc(Cl)ccc2n(Cc2ccccc2)c1=O
6	0.55	0.47	O=C(NC(=S)Nc1ccc(F)cc1)c1ccc2c(c1)OCCO2
7	1.3	0.43	COc1ccc(CC(=O)N2CCC(n3nccc3NC(=O)C3CCOC3)CC2)cc1 (centres undefined)
8	1.4	-0.72	Cc1ccc(C(=O)CCC(=O)Nc2cccc(C(F)(F)F)c2)cc1
9	0.28	-0.7	CCOc1cc([N+](=O)[O-])cc(/C=C2/NC(=O)N(Cc3ccccc3F)C2=O)c1O
10	0.47	-0.4	COC(=O)C1C(O)=C(C=Nc2ccccc2)C(=O)CC1(C)C (centres undefined)
11	2.1	-0.02	COc1ccc(C2=NN(CC(=O)NCC(OC)OC)C(=O)CC2)cc1
12	1	-0.05	Cc1sc2nc(CN3CCCC3)nc(NCc3ccncc3)c2c1C
13	1.1	0.86	Cc1ccccc1C(=O)Nc1ccnn1C1CCN(C(C)Cc2ccccc2F)CC1 (centres undefined)
14	0.12	-0.39	O=C(CNCc1ccccn1)Nc1ccc([N+](=O)[O-])cc1C(=O)Nc1ccccc1F
15	0.27	0.01	COc1ccc(-c2cn(CCC(=O)NCc3ccc(C)cc3)c(-c3ccncc3)n2)cc1
16	0.09	0.44	COc1nccnc1NS(=O)(=O)c1ccc(N/C=C2\CCCCC2=O)cc1
17	0.78	-0.87	O=C(/C=C/c1ccco1)NC(=S)Nc1ccccn1
18	0.06	-0.06	Cc1cc(=O)oc2cc(OCC(=O)Nc3ccc(S(=O)(=O)N(C)C)cc3)ccc12
19	0.91	0.48	Cn1c(-c2ccc3ccccc3n2)[n+](C)c2ccccc21
20	0.48	0.43	Cc1ccc2c(n1)sc1c(-c3ccc(Br)cc3)c(C#N)c(N)nc12
21	0.32	1.1	COc1cc(C(C)=O)ccc1COc1ccc(C(=O)OC(C)C(=O)NC(N)=O)cc1OC (centres undefined)
22	2.3	-1.9	O=S(=O)(Nc1cccc(-c2cn3ccsc3n2)c1)c1ccc(F)cc1
23	0.44	0	Cc1cc(N2CCOCC2)nc2ccc(NC(=O)C3CCC(C)CC3)cc12 (centres undefined)
24	0.16	1.2	Cc1ccc(OCc2cc(C(=O)N(C)Cc3nccn3C)no2)cc1C
25	1.2	2.7	CCOC(=O)/C(=C/c1cn(C)c2ccccc12)NC(=O)c1ccccc1
26	0.44	-0.51	O=C(Nc1ccccc1)Nc1ccc(Oc2cccnc2)nc1
27	0.93	-0.2	Cc1nnc(SCC(=O)Nc2ccc3c(c2)OCCO3)s1
28	9*	-0.64*	O=C(CN1CCCCCC1)Nc1ccc(Oc2ccccc2)cc1
29	1.9	0.87	COC(=O)c1sccc1NC(=O)c1c(C)noc1C
30	2	-0.79	COc1ccc(S(=O)(=O)N2CCCCC2)cc1NC(=O)c1cc(C)on1

Overlap with the part before: 4 compounds, followed by the next part.
nr	KCNQ2 enhance	KCNQ2 enhance baseline	canonical_smiles
27	0.93	-0.2	Cc1nnc(SCC(=O)Nc2ccc3c(c2)OCCO3)s1
28	9*	-0.64*	O=C(CN1CCCCCC1)Nc1ccc(Oc2ccccc2)cc1
29	1.9	0.87	COC(=O)c1sccc1NC(=O)c1c(C)noc1C
30	2	-0.79	COc1ccc(S(=O)(=O)N2CCCCC2)cc1NC(=O)c1cc(C)on1
31	1.4	-0.42	O=C(COC(=O)C1(c2ccccc2)CC1)NNC(=O)c1ccccc1
32	2.4	-1.6	CC(C)CN(CC(C)C)S(=O)(=O)N1CCC(C(=O)NC2CCCCCCC2)CC1
33	0.3	-0.89	O=S(=O)(c1ccc(Oc2ccc(-c3nnco3)cc2)nc1)N1CCC(Cc2ccccc2)CC1
34	0.06	0.21	CCOC(=O)N1CCN(C(=O)CS(=O)Cc2nc(-c3ccc(C)cc3)oc2C)CC1 (centres undefined)
35	0.51	-0.01	CCCCOc1ccc(C(C)NC(=O)CCS(=O)(=O)Cc2ccccc2F)cc1 (centres undefined)
36	1.4	-2.9	O=C(CSc1nc2ccccc2s1)NC1CCCC1
37	1.2	1.7	O=C(NCC12CC3CC(CC(C3)C1)C2)c1nc2ncccn2n1
38	0.46	1.2	CC1CCC(C(C)C)C(=O)/C1=C/c1ccc(N)cc1 (centres undefined)
39	0.44	-1.2	COc1ccccc1C(=O)N1CCN(c2ccc(N3CCOCC3)nn2)CC1
40	0.31	-0.3	O=C(Nc1cc(S(=O)(=O)N2CCCCC2)ccc1N1CCOCC1)c1cc(=O)[nH]c2ccccc12
41	0.19	0.08	CCOC(=O)c1cnn(CCOC(=O)c2ccc(OC)cc2)c1NC(=O)c1ccc(OC)cc1
42	1.4	0.99	O=C(CSc1nnc(COc2ccccc2Cl)o1)NC(=O)NC1CCCC1
43	0.92	0.1	COc1ccccc1OCc1nnc(SCCN2CCOCC2)o1
44	2	-0.89	CC(=O)Nc1ncc(Cc2cccc(Cl)c2)s1
45	1	-0.9	O=C(OC(C(=O)NCc1cccs1)c1ccc(F)cc1)c1ccco1 (centres undefined)
46	-5.6	.	COc1ccc(C(=O)NNC(=O)COc2ccc(Cl)cc2C)cc1S(=O)(=O)N1CCOCC1
47	0.07	0.15	COc1cccc(N2C(=O)CN(Cc3ccc(OC)c(OC)c3)C2=S)c1
48	0.65	0.11	CC(C)Oc1cccc(C(=O)Nc2ccc(N3CCN(S(C)(=O)=O)CC3)cc2)c1
49	2.3	-1	Cn1c(=O)c2c(nc(CN3CCCCC3)n2CCCc2ccccc2)n(C)c1=O
50	0.34	0.13	CCOc1ccccc1CNC(=O)c1c([N+](=O)[O-])c(C)nn1C
51	0.35	-0.02	Nc1nonc1NC(=O)CSc1ncccc1C(=O)O
52	2	-0.68	N#Cc1cc2sc3nc4ccccc4n3c2cc1C#N
53	1.1	-0.75	CCOC(=O)CCCNC(=O)CN1CCC(c2nc3ccccc3s2)CC1
54	1.4	0.48	COC(=O)c1sc(NC(=O)COc2ccc(OC)cc2)nc1C
55	1	-1.7	Cc1nc2cc(-c3ccccc3)ccc2o1
56	0.84	0.24	COc1cc(/C=C/C(=O)OCC(=O)N(C)C2CCS(=O)(=O)C2)ccc1OC(F)F (centres undefined)
57	0.72	0.56	COC(=O)/C(=N/Nc1ccccc1)N1CCCc2ccccc21
58	0.99	0.01	Cc1cccc2cc3c(N)c(C(=O)Nc4ccc(N5CCOCC5)cc4)sc3nc12
59	0.99	-0.05	O=Cc1cn(CC(=O)N2CCc3ccccc32)c2ccccc12
60	0.83	0.01	Cc1ccc(C(=O)N2CCN(c3ncccn3)CC2)o1

Single records (already shown). Order of screens: KCNQ2 enhance	KCNQ2 enhance baseline
Cc1ccc2c(n1)sc1c(-c3ccc(Br)cc3)c(C#N)c(N)nc12 reads 0.48	0.43
O=S(=O)(Nc1cccc(-c2cn3ccsc3n2)c1)c1ccc(F)cc1 reads 2.3	-1.9

New compounds follow
nr	KCNQ2 enhance	KCNQ2 enhance baseline	canonical_smiles
61	1.7	0.27	C=CCn1cnc2c(NCc3ccccc3)ncnc21
62	1.4	-0.7	O=C(Nc1cccnc1)c1cccc([N+](=O)[O-])c1
63	0.54	-0.92	Cc1ccc(C(c2nnnn2C(C)(C)C)N2CCN(C3CCCC3)CC2)cc1 (centres undefined)
64	0.02	-1.2	CCCc1nnc(NC(=O)Cn2cnc3ccccc3c2=O)s1
65	0.64	0.74	COc1ccc(CNC(=O)CNC(=O)[C@@H]2Cc3ccccc3CN2)cc1
66	0.21	-1.3	Nc1ncc2c(n1)CC(c1ccco1)CC2=O (centres undefined)
67	0.15	-0.94	COc1ccc(/C=c2/sc3n(c2=O)NC2(c4ccccc4)N(C)C(=O)N(C)C2(c2ccccc2)N=3)cc1 (centres undefined)
68	2.5	-0.77	Cn1cc(C=C2C(=O)CC(C)(C)CC2=O)c2ccccc21
69	2.3	-0.91	COCCNC(=O)CSc1nc2nn(-c3ccccc3)c(=O)c-2c2n1CCCCC2
70	0.85	0.02	COC(=O)Cc1cc(=O)[nH]c(/N=C(\N)Nc2ccc(C)cc2C)n1
71	0.26	0.72	COc1ccccc1OCCNC(=O)CNC(=O)c1ccc2c(c1)OCO2
72	0.92	0.42	CCn1c(C)c(Br)c(=O)c(C(=O)OC)c1-c1ccc(Cl)cc1
73	0.34	-0.75	CC(C)(C)NC(=O)/C(=C\c1ccco1)NC(=O)c1ccco1
74	0.98	-0.01	CCOc1cc(NC(=O)c2ccco2)c(OCC)cc1NC(=O)c1ccco1
75	0.67	0.05	O=C(NC1C/C(=N/O)c2cc3c(cc21)OCO3)C(F)(F)F (centres undefined)

Fetched one by one from the list above (three):
nr	KCNQ2 enhance	KCNQ2 enhance baseline	canonical_smiles
56	0.84	0.24	COc1cc(/C=C/C(=O)OCC(=O)N(C)C2CCS(=O)(=O)C2)ccc1OC(F)F (centres undefined)
74	0.98	-0.01	CCOc1cc(NC(=O)c2ccco2)c(OCC)cc1NC(=O)c1ccco1
20	0.48	0.43	Cc1ccc2c(n1)sc1c(-c3ccc(Br)cc3)c(C#N)c(N)nc12

New compounds follow
nr	KCNQ2 enhance	KCNQ2 enhance baseline	canonical_smiles
76	0.89	0.69	Cc1cccc(CC2S/C(=N/N=C/c3ccco3)N(c3ccccc3)C2=O)c1 (centres undefined)
77	1.4	-0.18	O=C(O)CC1c2ccccc2S(=O)(=O)N1Cc1ccccc1 (centres undefined)
78	0.03	0.37	O=C(Nc1ccc(-c2cn3ccsc3n2)cc1)C1CCCC1
79	0.34	0.37	Cc1cc(C)n(C(=O)CN2C(=O)COc3ccccc32)n1
80	0.29	-2.7	CCOc1ccccc1NC(=O)c1c(Br)cnn1C
81	0.02	-0.74	CN(Cc1cn(-c2ccccc2)nc1-c1ccc(F)cc1)C(=O)CCC(=O)O
82	0.74	1	COc1cc(OC)cc(C(=O)NCC(=O)NC(C)c2ccccc2)c1 (centres undefined)
83	0.35	-1.3	Cc1ccc(-n2ccc(=O)c(C(=O)Nc3ccc(S(=O)(=O)Nc4onc(C)c4C)cc3)n2)cc1
84	0.21	-1.2	CC(C)(C)Cc1nnc(NS(=O)(=O)c2ccccc2)s1
85	0.73	-2.5	O=C(CSc1nnc(Cc2ccccc2)o1)NCc1ccco1
86	0.52	0.2	Cc1cc2ncn(C(=O)N3CCCC3)c2cc1C
87	0.02	0.41	C/C(=N\NC(=O)CNc1cccc2ccccc12)c1ccccc1
88	0.69	0.38	O=C(Nc1cnn(Cc2ccc(F)cc2)c1)c1cnn2c(C(F)F)cc(-c3ccccc3)nc12
89	0.33	-0.77	CCOC(=O)c1oc2cccc(O)c2c1C
90	0.29	0.3	COCCCN1C(=O)C(=O)/C(=C(/O)c2ccc(S(=O)(=O)N3CCCCC3)cc2)C1c1ccc(F)cc1 (centres undefined)
91	2.3	-0.71	Cc1cc(C)nc(-n2ncc3c2CCCC3=O)n1
92	0.68	-0.29	C#CCOCCOCCOCCNc1nc(N2CCN(C(=O)Cn3cc(CCO)nn3)CC2)nc(N2CCN(C(=O)[C@H]([C@@H](C)O)n3cc(CCCCN)nn3)CC2)n1
93	1.1	-0.35	Cc1ccccc1NC(=O)CCC(=O)N/N=C/c1ccncc1
94	0.03	2.1	CCCc1cc(=O)[nH]c(SCC(=O)NCCC2=CCCCC2)n1
95	0.99	-0.62	O=C(Nc1ncc(Cc2cccc(Cl)c2)s1)c1cccs1
96	0.92	-1.6	CCC(CC)c1nnc(NC(=O)c2ccc3c(c2)OCO3)s1
97	0.1	1.2	COc1ccc(S(=O)(=O)CCC(=O)NCCc2ccc(Cl)cc2)cc1
98	0.08	2.2	CN(C(=O)COC(=O)c1cc(-c2ccc(Cl)s2)nc2ccccc12)C1CCS(=O)(=O)C1 (centres undefined)
99	0.78	-1.3	COc1cccc(C(=O)NNS(=O)(=O)c2ccc(F)cc2)c1
100	0.45	-0.36	CC1(C)CCCN(C(=O)c2ccc3c(c2NCCO)C(=O)c2ccccc2C3=O)C1
101	0.71	-0.52	CCC1CCCCN1S(=O)(=O)c1c(C)n(C)c(=O)n(C)c1=O (centres undefined)
102	0.32	3.6	CN1CCN(c2ccc(CNS(=O)(=O)c3cccc(F)c3)cc2)CC1
103	1.6	0.15	COc1ccc(OCCCC(=O)OCC(=O)NNC(=O)c2ccc([N+](=O)[O-])cc2)cc1
104	0.09	0.25	CNC(=O)NC(=O)CSc1ncc(C(F)(F)F)cc1Cl
105	0.43	-1.5	CCOc1cc2[nH]c(=S)n(Cc3ccc(C)o3)c(=O)c2cc1OCC
106	0.06	-0.18	O=C(c1ccsc1)N1CCCC(Nc2ccc(F)c(F)c2)C1 (centres undefined)
107	0.2	2	COc1cc(C(=O)Nc2nc(-c3ccc(F)cc3)cs2)ccc1OCC(=O)N1CCOCC1
108	0.72	-2.1	Clc1ccc(N=c2ssnc2Cl)nc1
109	4.4	1.1	Cc1cccc(Oc2ccccc2NC(=O)CN2C(=O)NC3(CCCC3)C2=O)c1
110	0.02	0.01	CCOC(=O)c1c(C)sc2c1N(C(=O)CN(CC)CC)c1ccccc1S2
111	0.78	0.04	Cc1ccc(C(C(=O)NC2CCCC2)N(C(=O)CNC(=O)c2cccs2)c2cccnc2)o1 (centres undefined)
112	0.77	-0.66	Cn1c(CN2CCOCC2)nc2cc(NC(=O)c3ccccc3Cl)ccc21
